Source: PubChem BioAssay
Env fusion inh – blocks HIV Env-driven cell-cell fusion | HeLa-JRFL Env/CEM21 cell fusion, luciferase | inhibition, % at 12.3 µM | 360,000 tested, 1.1% active | AID 651610;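 active = mean replicate inhibition score of at least 50 and every replicate individually at or above 50; inconclusive = only one of the two criteria met; inactive = mean below 50 and not all replicates reaching 50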;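 also: 0% = plate neutral controls and 100% = maraviroc near 300 nM; one replicate is shown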
CSC inhib – cancer stem cell inhibition. cancer stem cell-like cells viability, luminescence. inhibition, % at 7.5 µM. 300,000 tested, 1.1% active. AID 2717;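 active = mean at 75% or more and at least half the replicates too; inconclusive = mean and replicates disagree; tested in HMLE shEcad cells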;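 also: 0% = median of negative and 100% = median of positive control wells; the first replicate is given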
eIF4H inh – inhibitors of RNA binding by human eIF4H; eIF4H fluorescence polarization binding assay; inhibition, % at 35 µM; 290,000 tested, 0.94% active; AID 2012;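 active = 50% or more with normal probe brightness, or confirmed in later tests; inconclusive = above 50% with abnormal brightness, or retests that disagree; inactive = below 50% or failed in later tests; about a fifth of its hits are not listed in these tables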;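 also: calls also rest on retests at 20 µM and on dose response follow-up; 0% = protein and probe with vehicle and 100% = probe without protein; strong numbers were not always called active; many hits fall short of the cut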
MT1-MMP act inh – inhibitors of human MT1-MMP activation | 360,000 tested, 0.061% active | AID 651647 | HT1080 RFP-PRO-GFP cells, GFP/RFP ratio fluorescence, overnight; percent of plate control window, DMSO zero | GFP/RFP ratio change, % at 20 µM;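 active = GFP/RFP ratio change of at least 30% with cell ATP level not reduced by more than half and red fluorescence within 50% of control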; also: strong numbers were not always called active
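Test system: HT1080 RFP-PRO-GFP cells; Benchmarks: DMSO and RFP-L50D-GFP cell wells; Timing: cells overnight before dosing, compound overnight, 37 °C, 5% CO2; Compound: one 20 µM compound dose with 1% DMSO; Read-out: GFP/RFP fluorescence ratio.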
Yeast UUG start – alters start codon recognition fidelity in yeast. 350,000 tested, 0.13% active. activity score, % at 18.7 µM. S. cerevisiae UUG-firefly luciferase reporter, luminescence/redox ratio;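 active = replicate mean at a twofold rise or more, about +100% in these data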;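 also: firefly luciferase made from a UUG start codon reports start codon fidelity; reporter light over untreated wells divided by growth signal over untreated wells; some hits fall short of that in this replicate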
Rce1 inh – inhibitors of yeast Ras-converting enzyme | Q03530 | calls only | 290,000 tested, 0.27% active | AID 2563 | yeast membranes, quenched prenylated peptide cleavage fluorescence;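 active = fall in fluorescence gain of 50% or more versus controls, with final raw signal at or below 3038400; inconclusive = same 50% fall but final raw signal above 3038400; inactive = fall in fluorescence gain under 50%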;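 also: plate controls were neutral control wells for no effect and wells lacking membranes for full effect; tested at 10 µM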
Target sequence (Q03530 whole entry, looked up): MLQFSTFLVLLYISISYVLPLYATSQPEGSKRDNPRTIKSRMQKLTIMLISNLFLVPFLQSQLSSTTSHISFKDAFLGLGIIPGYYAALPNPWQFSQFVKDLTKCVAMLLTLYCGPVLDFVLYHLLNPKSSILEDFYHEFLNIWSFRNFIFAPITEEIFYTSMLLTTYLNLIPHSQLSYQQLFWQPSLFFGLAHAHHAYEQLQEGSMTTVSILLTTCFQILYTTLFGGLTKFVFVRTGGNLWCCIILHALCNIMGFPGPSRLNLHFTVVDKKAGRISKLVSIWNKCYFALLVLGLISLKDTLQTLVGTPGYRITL
PABP FP inh – blocks human PABP binding to poly(A) RNA; 290,000 tested, 1% active; fluorescence polarization; P11940; inhibition, % at 35 µM;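 active = 50% or more with normal probe brightness, or confirmed in later tests; inconclusive = above 50% with abnormal brightness, or retests that disagree; inactive = below 50% or failed in later tests; about a fifth of its hits are not listed in these tables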;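 also: calls also rest on retests at 20 µM and on dose response follow-up; controls were probe without protein and protein plus probe with vehicle; some compounds called inactive have numbers as strong as hits; many hits fall short of the cut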
eIF4H inh retest – further read-out of eIF4H inh, marked with its call; inhibition, %; compound at 20 µM; confirmation average;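 mean of two retest wells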
PABP FP inh retest – also measured in PABP FP inh; calls as there; inhibition, %; compound at 20 µM; confirmation repeats;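 mean of two retest wells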
MT1-MMP act inh RFP – second read-out of MT1-MMP act inh, no call of its own (marks repeat the call); RFP signal change, %; measured here: RFP expression control read;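 0 = vehicle wells; hits needed this value within 50% of zero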
* = called active by the depositor; i = inactive; ? = inconclusive; nt = no result given.

SMILES	Env fusion inh	CSC inhib	eIF4H inh	MT1-MMP act inh	MT1-MMP act inh RFP	Yeast UUG start	Rce1 inh	PABP FP inh	others
COCCn1c(SCc2nc3ccccc3c(=O)[nH]2)nc2ccccc2c1=O	11	-9	-7	-6	-4	3	i	-4
Cc1ccc(-c2c(C)sc3nc[nH]c(=O)c23)cc1C	7	4	-11	6	-4	-7	i	-7
COc1ccc(-c2csc(-c3ccccc3)n2)c(OC)c1	-156	11	13	-8	-2	nt	i	31
Cc1ccc(S(=O)(=O)Nc2ccc(-c3cn4ccc(C)cc4n3)cc2)cc1	-26	-12	-9	5	-5	-9	i	18
COc1cccc(NC(=O)c2cc(C(=O)Nc3cccc(OC)c3)n(C)n2)c1	nt	13	0	2	0	-4	i	13
CC1CCCN(S(=O)(=O)c2ccc(NC(=O)CNC3CCCC3)cc2)C1 (stereo unspecified)	7	40	-4	-8	-1	-14	i	-8
Cc1ccc2[nH]cc(C(=O)NCc3cccs3)c(=O)c2c1	nt	10	4	6	-8	9	i	-14
O=C(COc1ccc(C(=S)N2CCCC2)cc1)Nc1ccc(F)cc1	-36	9	0	0	0	-10	i	-3
O=C1CCC(C(=O)NC2(C(=O)NC3CCCCC3)CCCCC2)N1 (stereo unspecified)	-6	7	-2	1	2	-6	i	0
O=C(Nc1ccc(N2CCOCC2)nc1)c1cccs1	-11	0	41	0	2	-8	i	-2
CCN(CC)CCN(C)C(=O)CCc1nnc(-c2ccc(C)s2)o1	-17	5	2	-3	-4	-9	i	-7
CCN(CC)S(=O)(=O)N1CCC(C(=O)NCc2ccc(C)cc2)CC1	-73	-10	-8	3	-2	-10	i	-5
Cc1ccc(N2CC(C(=O)OCC(=O)Nc3cc(C)on3)CC2=O)c(C)c1 (stereo unspecified)	-3	-6	10	2	2	-8	nt	2
COc1ccc(C2CC(=O)c3cnc(Nc4cc(C)cc(C)c4)nc3C2)cc1 (stereo unspecified)	?	0	4	1	-7	-12	i	10
O=C1c2ccccc2C(=O)N1c1ncc(Cc2ccc(Cl)cc2)s1	-4	-1	0	4	5	nt	nt	0
COCCNC(=O)C1CCC(CNS(=O)(=O)c2cccc3nsnc23)CC1 (stereo unspecified)	7	-11	-14	0	-2	-8	i	3
COC(=O)C1=CN(c2cccc(C(F)(F)F)c2)C=C(C(=O)OC)C1c1ccc(O)c(OC)c1	1	34	-2	-7	-8	-16	i	-1
CCc1ccc(NC(=O)CN2CCCN(S(=O)(=O)c3ccc(F)cc3)CC2)cc1	4	6	0	-2	-4	5	i	1
COc1ccc(NC(=O)CNC(=O)Cn2cnc3sc4c(c3c2=O)CCCC4)cc1OC	2	-7	-2	2	1	-9	i	0
COc1ccc(CNC(=O)c2cc3c(=O)n4cccc(C)c4nc3n(CC3CCCO3)c2=N)cc1 (stereo unspecified)	-14	16	-4	4	0	-17	i	-22
Cc1ccc(CNC(=O)c2ccc(N3CCC4(CC3)CC(c3ccccc3)=NO4)c(NC(=O)c3cccc(C)c3)c2)cc1	1	13	nt	4	1	-18	i	nt
CCCCN(C=O)c1c(CC)nc2ccc(C(=O)N3CCN(C(C)=O)CC3)cn12	-7	nt	nt	0	4	-19	nt	nt
Cc1ccc(OCC(=O)OCC(=O)Nc2ccc3c(c2)OCO3)cc1C	nt	-6	nt	-2	2	-6	nt	nt
Cc1ccc(S(=O)(=O)N2CC=C(C(=O)NC3CC3)CC2)cc1	-11	-21	-6	6	5	-6	i	-7
Cc1ccc(NC(=O)C2CCCN(S(=O)(=O)c3c(C)noc3C)C2)c(C)c1 (stereo unspecified)	-57	-10	14	-4	-4	-12	i	7
Cc1ccc2cc(CCNC(=O)C3CCCC3)c(=O)[nH]c2c1	-26	-2	-1	2	4	-11	i	2
Cc1ccc(C)c(S(=O)(=O)N2CCN(C(=O)Cn3c(=O)cnc4ccccc43)CC2)c1	-1	8	nt	2	-1	8	i	nt
O=C(CSc1nnc2ccc(-c3ccco3)nn12)Nc1ccccc1F	-13	nt	nt	1	0	nt	i	nt
CCN1C(=O)[C@H]2[C@@H](c3ccc(-c4ccc(F)cc4)cc3)N3CCCC[C@@]3(C(=O)OC)[C@H]2C1=O	30	21	nt	-9	-11	-5	i	nt
CCC(Oc1ccccc1)C(=O)NCc1ccc(S(N)(=O)=O)cc1 (stereo unspecified)	-5	-16	1	-1	0	nt	i	4
COc1ccc(Cc2nc3ccc(C(=O)NCc4cc(C)no4)cc3o2)cc1OC	nt	-5	-3	3	-8	-1	i	0
Cc1ccc(C(=O)Nc2nnc(S(=O)(=O)N3CCOCC3)s2)cc1	0	-5	-11	-1	-1	-12	i	-16
CCOC(=O)c1ccc(O)c(-n2cc3c(c2-c2ccccc2)c(=O)n(C)c(=O)n3C)c1	-14	nt	nt	5	2	-3	nt	nt
FC(F)(F)c1cccc(-c2cc3ccccc3nc2N2CCCC2)c1	nt	nt	3	3	-6	1	i	-5
Cc1nc2nc(C)c(CCC(=O)NCc3ccc4c(c3)OCO4)c(C)n2n1	-18	6	-9	1	3	nt	i	0
O=C(NCCc1ccc(F)cc1)C(=O)Nc1cc2c3c(c1)CC(=O)N3CCC2	18	8	nt	-1	5	-19	i	nt
Cc1cc(NC(=O)CCS(=O)(=O)c2ccc3c(c2)NC(=O)C(C)S3)ccc1Br (stereo unspecified)	nt	-9	-11	5	-1	6	i	4
COc1cc2c(cc1OC)CN(Cc1cc(=O)oc3cc(C)c(C)cc13)CC2	15	18	-2	5	6	nt	i	-4
COc1ccc([N+](=O)[O-])cc1NS(=O)(=O)c1ccccc1	17	-3	0	-1	4	nt	i	-6
CCc1c(C)[nH]c2c1C(=O)C(CN1CCOCC1)CC2 (stereo unspecified)	nt	-2	nt	-4	0	-5	i	nt
O=C(COc1ncnc2ccccc12)N1CCOCC1	nt	-7	8	2	4	-15	i	-3
COCCCn1cc(C(=O)c2cc(OC)ccc2OCC(=O)Nc2cc(C)on2)cc(C#N)c1=O	nt	4	-14	-7	-5	nt	i	-2
Cc1ccc(C(=O)NCC(c2ccco2)N2CCCCC2)s1 (stereo unspecified)	nt	-13	nt	-10	4	-13	nt	nt
COc1ccccc1CNC(=O)C12CC3CC(CC(C3)C1)C2	-2	24	1	-2	1	-23	i	2
COCC(=O)Nc1nc(-c2ccc([N+](=O)[O-])cc2)cs1	-1	13	-6	3	-2	-7	i	-9
COCCNC(=O)C1(C)CCCN(Cc2ccccc2N(C)C)C1 (stereo unspecified)	-10	nt	nt	-1	3	-6	nt	nt
Nc1c(C(=O)NCc2ccco2)c2nc3ccccc3nc2n1CCc1ccc(F)cc1	3	30	-2	-13	4	-21	i	11
CN(C(=O)CSc1nnc(-c2ccncc2)n1Cc1ccccc1)C1CCS(=O)(=O)C1 (stereo unspecified)	nt	-2	-4	-3	1	nt	i	13
COc1ccccc1CNS(=O)(=O)c1ccc2c(c1)CC(C)N2C(=O)C1CC1 (stereo unspecified)	12	-18	nt	-2	-14	4	i	nt
COc1cc(S(=O)(=O)N2CCN(C(=O)c3ccccc3)CC2)c(OC)cc1Br	-6	-4	-6	2	-2	nt	i	-9

Next part.
SMILES	Env fusion inh	CSC inhib	eIF4H inh	MT1-MMP act inh	MT1-MMP act inh RFP	Yeast UUG start	Rce1 inh	PABP FP inh	others
CCOC(=O)N1CCN(CC(O)COc2ccc(-c3ccccc3)cc2)CC1 (stereo unspecified)	17	-1	-6	1	0	-21	i	-7
CCOc1ccccc1NC(=S)N1CCC(NC(=O)C(C)(C)C)CC1	14	4	-3	0	5	nt	i	7
CCCN(CCC)S(=O)(=O)c1ccc(C(=O)Nc2nnc(-c3cccc(OC)c3)o2)cc1	6	20	13	-3	-9	nt	i	-6
COc1ccc(Br)cc1CNC(=O)Cc1cccs1	-1	1	-4	-5	-3	-22	i	2
COc1ccc(Cc2c(-c3ccccc3)nc3c4ccccc4ccn23)c(C)c1	-3	nt	nt	0	3	0	nt	nt
O=[N+]([O-])c1ccc(/C=[N+](\[O-])[C@@H]2CCCC[C@@H]2/[N+]([O-])=C/c2ccc([N+](=O)[O-])o2)o1	-30	15	81*	5	-5	-1	i	48*	eIF4H inh retest=83*;PABP FP inh retest=60*
NS(=O)(=O)c1ccc(NC(=O)CN2CCc3ccccc3C2)cc1	-16	-11	-4	-1	1	-8	i	-4
O=C1CC2(CCCC2)CC(=O)N1CCCCN1CCN(c2ncccn2)CC1	2	-4	-6	nt	nt	2	i	7
Cc1ccc(OC(=O)Cn2c(C(F)(F)F)nc3ccccc32)cc1	nt	2	2	0	3	-10	i	-7
COc1ccc(/C=N/NC(=O)c2cccc(Br)c2)cc1CN1CCOCC1	-11	-3	2	-2	-2	-15	i	-5
CC(=O)Nc1ccc(-c2ccnc3c2CC(C)(C(=O)NCc2ccco2)O3)cc1 (stereo unspecified)	40	nt	nt	1	-11	12	nt	nt
CCOC(=O)C1CCN(c2c([N+](=O)[O-])c(C(Cl)Cl)nn2-c2ccccc2)CC1	12	-14	1	-5	-5	-1	i	0
O=C1NNC(c2ccccc2)=N/C1=C\c1ccccc1Cl	12	nt	-5	2	-1	-25	nt	0
Cc1snc(SCC(=O)N/N=C(\N)COc2cccc(C(F)(F)F)c2)c1C#N	-2	3	9	12	2	-17	i	-2
O=C(Nc1ccc(Cl)c(S(=O)(=O)N2CCOCC2)c1)c1ccc2c(c1)OCO2	14	-9	nt	3	-24	-11	nt	nt
CCc1noc(C)c1C(=O)NNC(=O)COc1ccc(Br)cc1	26	-4	-15	-2	-4	-30	i	-6
Cc1ccc(N2C(=O)SC(N(CC(=O)O)c3ccc(C)cc3)C2=O)cc1 (stereo unspecified)	11	-14	-3	-2	2	-6	i	0
O=[N+]([O-])c1cc(/C=N/N2CCN(c3ccccc3)CC2)ccc1Cl	nt	-4	9	2	0	-18	i	-9
CCOC(=O)N/N=C(\CCC(=O)O)c1cccs1	11	-3	-1	-2	2	-3	i	8
Cn1c(Cc2ccc3c(c2)OCO3)nnc1SCC(=O)NC1CCCC1	9	5	-3	nt	nt	nt	i	-4
Cc1ccc(CCNC(=O)c2cc(S(=O)(=O)N3CCCCC3)c[nH]2)cc1	-9	17	-4	-3	-6	-5	i	6
CCC(CO)n1c(=S)[nH]c2cc(OC)c(OC)cc2c1=O (stereo unspecified)	-11	nt	-3	-2	1	-25	i	1
COc1cc(C(C)=O)ccc1OCCCN1CCC(Cc2ccccc2)CC1	5	24	2	2	1	-11	i	-3
Cc1cc(C)nc(NC(=O)C(C)C)n1	nt	-16	-1	2	1	1	i	-1
COc1ccc2ccccc2c1/C=N\n1c(C)cc(C)c(C(N)=O)c1=O	nt	19	-11	1	1	-14	i	4
O=S(=O)(NCCN1CCOCC1)c1ccc2ccccc2c1	-18	-13	nt	7	2	-8	nt	nt
Cc1ccc(C)c(NC(=O)C2CCCN2S(=O)(=O)c2ccc3c(c2)n(C)c(=O)c(=O)n3C)c1 (stereo unspecified)	-3	-10	7	-1	0	-21	i	-2
CC(C)CN(C(=O)CN(C)CC(=O)Nc1ccc(Cl)c(C(F)(F)F)c1)c1c(N)n(CC(C)C)c(=O)[nH]c1=O	32	2	nt	-1	-1	1	nt	nt
O=C(CSc1nnc(-c2cccc(Br)c2)o1)N1CCNC1=O	nt	5	nt	4	0	-8	nt	nt
